# Screening results from PubChem.
# AmpC inh no det – blocks E. coli AmpC beta-lactamase in absence of detergent. AmpC nitrocefin hydrolysis, absorbance 480 nm, no detergent; potencies from a single point are estimates. Potency, µM (doses to about 28.7 µM), for the others: at the highest dose activity change, negative = inhibition. P00811. actives 1.8% (n = 71,000); active = falling curve, for most hits resting on a single point; inconclusive = weak or doubtful change; inactive = flat or rising curve; also: % of control where 0% means no effect; about half of the hits show no inhibition at the top dose; a quarter of the inactives give rising signals
# Target sequence (P00811 whole entry, looked up): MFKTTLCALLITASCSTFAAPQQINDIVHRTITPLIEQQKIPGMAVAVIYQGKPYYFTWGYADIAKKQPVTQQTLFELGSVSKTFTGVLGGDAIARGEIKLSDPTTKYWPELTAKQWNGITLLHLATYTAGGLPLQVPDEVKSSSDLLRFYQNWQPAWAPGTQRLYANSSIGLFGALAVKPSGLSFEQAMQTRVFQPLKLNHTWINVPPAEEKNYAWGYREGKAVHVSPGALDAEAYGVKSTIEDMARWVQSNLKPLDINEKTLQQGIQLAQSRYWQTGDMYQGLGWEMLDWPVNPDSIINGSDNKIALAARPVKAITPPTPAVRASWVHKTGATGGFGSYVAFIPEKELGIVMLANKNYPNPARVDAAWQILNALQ
#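 AmpC, 20 mM phosphate pH 7.0; 15 min cpd preinc, RT; start with nitrocefin (800 uM stock); A480 kinetic read, 20 s intervals, 4 min. No-enzyme wells = negative control.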
# * hit, by the source's call; ? = inconclusive; [ ] = dose if it differs, or a comment. Potency is read from the fitted curve at half-maximal effect. Some of the compounds tested. The share of hits here may be higher or lower than overall.
# Sample of the layout:
canonical_smiles,AmpC inh no det
Cc1ccc(CCNC(=O)C2CCCN(C(=O)c3cc4sccc4n3C)C2)cc1 (centres undefined),110.6%
CCNC(=O)CC1C(=O)N(c2ccc(C)cc2)C(=O)N1Cc1ccccn1 (centres undefined),3.1%

# The whole of this part, previewed entries included:
canonical_smiles,AmpC inh no det
Cc1ccc(CCNC(=O)C2CCCN(C(=O)c3cc4sccc4n3C)C2)cc1 (centres undefined),110.6%
CCNC(=O)CC1C(=O)N(c2ccc(C)cc2)C(=O)N1Cc1ccccn1 (centres undefined),3.1%
Cc1occc1C(=O)NCc1ccc2c(c1)OCO2,-14.4%
c1ccc2c(c1)Oc1ccccc1S2,?
COCCNc1nc(C)nc2c1nc(-c1ccccc1)n2C1CCN(Cc2ccccc2)C1 (centres undefined),69.3%
CCn1ncc(Cl)c1C(=O)NC(C)c1ccccc1 (centres undefined),9.0%
CCOC(=O)CSc1ccc2nnc(-c3cccs3)n2n1,26.8%
O=C1C2C3C=CC(C3)C2C(=O)N1c1n[nH]c(CCc2ccccc2)n1 (centres undefined),2.0%
CCCCN(CC)S(=O)(=O)c1ccc(C(=O)Nc2nnc(CSC)o2)cc1,-1.9%
CCOC(=O)CSc1cc(C)nc(NC(C)=O)n1,2.6%
Cn1c(=O)n(CCCOc2ccc(Br)cc2)c2ccccc21,116.2%
CCCC(=O)Nc1c(C)nn(C(=O)CCC)c1C,4.0%

# The results go on.
canonical_smiles,AmpC inh no det
O=C(Nc1ccc(Nc2ccccc2)cc1)C1CC1,-22.8%
CN1CCCC(OC(=O)COc2ccccc2)C1 (centres undefined),-17.5%
COC(=O)C1C(=O)C2=C(CC1C)NC(=O)CC2c1ccc(O)c(OC)c1 (centres undefined),2.7%
CC(C)NS(=O)(=O)c1ccc(CCC(=O)N2CCOCC2)cc1,1.4%
O=C(CSc1nnnn1-c1ccc2c(c1)OCCO2)N1CCc2ccccc21,?
O=C(Cc1cccs1)Nc1cccnc1,-4.1%
CN(C1CCCCC1)S(=O)(=O)Cc1ccccc1,-7.1%
O=C(N1CCN(c2ccccc2)CC1)C12CC3CC(CC(C3)C1)C2,5.1%
CCCOC(=O)c1ccccc1C(=O)OCCC,-4.8%
O=C(CN1CCN(Cc2ccccc2)CC1)c1ccc(Br)cc1,2.0%
CCOC(=O)N1CCC(n2c(=S)[nH]c3cc(OC)c(OC)cc3c2=O)CC1,67.0%
O=C(NCc1ccccc1)NC(=O)c1ccccc1,-0.1%

# Further entries
canonical_smiles,AmpC inh no det
Nc1ccccc1OCCOCCOCCOc1ccccc1N,22.0%
O=C(OCc1c(Cl)cccc1Cl)c1cccnc1,9.5%
COC(=O)c1ccc(CSc2nnnn2-c2ccccc2)o1,-10.0%
Cc1ccccc1C(=O)Nc1cccc(-c2nnc(SCC(=O)O)n2C)c1,5.1%
CC(NC(=O)Oc1ccccc1)C(c1cccs1)N1CCOCC1 (centres undefined),15.1%
CCCCNc1nc(C)nc2c1nc(-c1ccccc1)n2CCN(C)C,65.4%
CN1CCC[C@@H]1c1cccnc1.O=C(O)c1ccccc1O.O=C([OH2+])c1ccccc1O.O=C([OH2+])c1ccccc1O.O=C([OH2+])c1ccccc1O.[Cu],-0.4%[5.75 µM]
Cc1c(C(=O)N2CCN(S(C)(=O)=O)CC2)oc2ccccc12,36.7%
O=c1[nH]c2cc3c(cc2cc1CN(CCCO)Cc1nnnn1Cc1ccc(F)cc1)OCO3,42.1%
CCN1CCN(c2nc3c(c(=O)n(C)c(=O)n3C)n2CCSc2ncccn2)CC1,5.3%
CN(C)Cc1ccccc1-c1ccc2ncnc(NCc3ccccc3)c2c1,28.0%
Cc1ccc(Cl)cc1N1CCN(S(=O)(=O)c2ccc3c(c2)OCCO3)CC1,-1.6%

# Reformatted: 3 of the compounds above.
CN(C)Cc1ccccc1-c1ccc2ncnc(NCc3ccccc3)c2c1
  AmpC inh no det: 28.0%

Cc1ccc(Cl)cc1N1CCN(S(=O)(=O)c2ccc3c(c2)OCCO3)CC1
  AmpC inh no det: -1.6%

CCN1CCN(c2nc3c(c(=O)n(C)c(=O)n3C)n2CCSc2ncccn2)CC1
  AmpC inh no det: 5.3%

# Three compounds from above, arranged by number of heavy atoms, largest number first:
canonical_smiles,AmpC inh no det
O=c1[nH]c2cc3c(cc2cc1CN(CCCO)Cc1nnnn1Cc1ccc(F)cc1)OCO3,42.1%
CC(NC(=O)Oc1ccccc1)C(c1cccs1)N1CCOCC1 (centres undefined),15.1%
O=C(OCc1c(Cl)cccc1Cl)c1cccnc1,9.5%

# Later entries.
canonical_smiles,AmpC inh no det
Cc1ccc2c(c1)C(N1CCCC1=O)CC(c1ccco1)N2 (centres undefined),10.7%
O=C(Nc1ccccc1C(=O)N1CCOCC1)c1noc2c1CCCC2,12.4%
COc1ccc(/C(O)=C2/C(=O)C(=O)N(CCCN(C)C)C2c2cccnc2)cc1 (centres undefined),5.4%
COc1ccc(-c2noc(N3CCC(C(=O)N4CCN(c5ccccn5)CC4)CC3)n2)cc1,114.7%
CCOC(=O)Nc1cccc2ccccc12,-14.1%
CCCc1nc(SCC(=O)N2CCN(c3ccccc3)CC2)c2c(=O)n(C)c(=O)n(C)c2n1,5.0%
CCn1nc(-c2cccs2)nc2c(=O)n(C)c(=O)nc1-2,-12.9%
CCCCn1c(SCC(=O)c2ccc3c(c2)OCCO3)nnc1-c1ccco1,115.3%
Cc1ccc(S(=O)(=O)CNC(=O)c2ccccc2)cc1,-9.4%
COc1ccc(NC(=O)N(CCCN2CCOCC2)Cc2cccnc2)c(OC)c1,12.3%
CC(C)OCCCn1c(=S)[nH]c2cc3c(cc2c1=O)OCO3,7.4%
O=C(NC1CCCCC1)N1CCCC(c2nc(-c3ccc(S(=O)(=O)N4CCCC4)cc3)no2)C1 (centres undefined),76.9%

# (more compounds)
canonical_smiles,AmpC inh no det
O=S(=O)(Nc1ccc2c(c1)CCC2)c1cccs1,-19.9%
CCOC(=O)c1cnn(CC2CCCCC2)c1N,1.7%
Nn1c(SCC(=O)Nc2ccc3c(c2)OCO3)nnc1-c1ccncc1,-8.5%
CC(C)CCn1c(Sc2nc3ccccc3s2)nc2c1c(=O)[nH]c(=O)n2C,104.3%
CC1CCC(NC(=O)Cn2c(=O)[nH]c3ccsc3c2=O)CC1 (centres undefined),-7.6%
O=C(N1CCOCC1)N1CCN(c2nc(-c3ccc(F)cc3)cs2)CC1,101.6%
Cn1c(=O)c(C(=O)CSc2nncs2)c(N)n(Cc2ccccc2)c1=O,-3.1%
CC1(C)CC(C(CC(=O)O)c2ccccc2)CCO1 (centres undefined),0.9%
CCOC(=O)N1CCC(n2c(=S)[nH]c3cc(OCC)c(OCC)cc3c2=O)CC1,57.8%
Cc1c(C(=O)Nc2ccc3c(c2)OCCO3)sc2nc(-c3ccccc3)cn12,55.1%
Cn1c(=N)n(CC(=O)O)c2ccccc21,-1.3%
COc1ccccc1N1C(=O)CCC1(C#N)c1ccccc1 (centres undefined),19.9%

# Later entries
canonical_smiles,AmpC inh no det
COC(=O)c1ccc(C2C(C#N)=C(N)Oc3cc(C)n(C)c(=O)c32)cc1 (centres undefined),5.6%
O=C(Cn1cc2c(n1)CCCC2)NCCCN1CCN(C2CCCCC2)CC1,26.6%
CN1C(=O)c2cccc(N(C)C)c2C1=O,-3.1%
COc1ccc(NC(=O)c2ccccc2NC(=O)c2ccco2)c(OC)c1,47.2%
O=C(O)C1CC=CCC1C(=O)NC12CC3CC(CC(C3)C1)C2 (centres undefined),-0.5%
CN(C)CCCNc1oc(-c2ccc(Cl)cc2)nc1C#N,27.9%
Cc1nc2cnc(N3CCN(C)CC3)nc2n(Cc2cccs2)c1=O,19.6%
O=S1(=O)C=CC(Nc2cccc(Cl)c2)C1 (centres undefined),-0.9%
Cc1cc(N2CCN(C3CCCC3)CC2)n2ncc(-c3ccccc3)c2n1,93.2%
O=C(NCc1ccco1)Nc1ccc(Br)cc1Cl,-18.0%
CCn1cc(C(C)NC(=O)COc2ccc(Cl)cc2C)c(C)n1 (centres undefined),13.9%
O=Cc1ccc(C(=O)O)cc1,3.2%

# The listing continues:
canonical_smiles,AmpC inh no det
Cc1cccc(N=C2NC(=O)CS2)c1C,1.3%
O=C(NCc1ccco1)c1cc(-c2ccncc2)nc2ccccc12,30.5%
CCCCC(c1nnnn1C1CCCC1)N1CCN(C2CCCCC2)CC1 (centres undefined),7.6%
CCC(CCC(=O)Nc1cccc(C(=O)O)c1)C(=O)O (centres undefined),-9.2%
CCC(C(=O)N1CCN(c2cccc(Cl)c2)CC1)c1ccccc1 (centres undefined),56.0%
CCCCCCN(C(=O)CCCCCN1C(=O)NC(c2ccc(-c3ccccc3)cc2)C(C(=O)OCc2ccccc2)=C1C)C(C(=O)NCCCC)c1ccc(OCC(=O)OC)cc1 (centres undefined),34.4%
CC12CCC(C(=O)Nc3cccc(NC(=O)C45CCC(C)(C(=O)O4)C5(C)C)n3)(OC1=O)C2(C)C,102.9%
COCC(C)NCc1ccccc1C (centres undefined),-15.8%
CN1CCN(C(=O)c2ccc(N(Cc3ccccc3Cl)S(C)(=O)=O)cc2)CC1,32.1%
COc1ccc(C2CCCN2C(=O)Nc2ccc(F)cc2)cc1OC (centres undefined),20.2%
CN(C)c1ccc(CNC2CC(C)(C)NC(C)(C)C2)cc1,-0.7%
CCC/C=C(\CCC)C(NS(=O)(=O)c1ccc(Cl)cc1)c1ccccc1 (centres undefined),?

# (listing goes on)
Compound	AmpC inh no det
Brc1ccc(-c2ccccc2)cc1	-1.7%
Cc1occc1C(=O)Nc1nnc(C(F)(F)F)s1	-2.1%
c1cncc(CNC2=NCCC2)c1	4.5%
CCc1cc2c(=O)c(Oc3ccccc3F)c(C)oc2c(CN(C)C)c1O	-6.8%
COc1ccc(OC)c(CNC(=O)C2CCCN(C(=O)N(C)C)C2)c1 (centres undefined)	0.9%
CCn1cc(SCC(=O)Nc2cc(C)on2)c2ccccc21	-8.2%
CCNCCCNCCCNCCCNCC	-0.1%
CC1NC2(C(=O)N(Cc3ccccc3)c3ccccc32)C2C(=O)N(c3ccccc3)C(=O)C12 (centres undefined)	44.2%
Cc1cc(NC(=O)c2cc(-c3ccccn3)nc3ccccc23)no1	18.5%
Cc1ccc(N2C(=O)c3ccc(N)cc3C2=O)cc1C	-0.1%
Cc1ccc([C@@H]2C3COCC=C3C(C#N)=C(N)C2(C#N)C#N)o1 (some centres undefined)	3.0%
CCCN(CCC)S(=O)(=O)c1ccc(C(=O)Nc2nnc(-c3cc(OC)cc(OC)c3)o2)cc1	-16.8%
CCOC(=O)C1C(=O)Oc2ccc3ccccc3c2C1C1CCOC1=O (centres undefined)	3.98µM*[single pt active]
c1ccc2c(c1)OCC(c1csc3ncnc(N4CCOCC4)c13)O2 (centres undefined)	7.9%
O=C(NCc1cccnc1)C1CCN(S(=O)(=O)N2CCOCC2)CC1	-8.0%
CC(C)N(Cc1nc2ccccc2[nH]1)C(C)C	3.98µM*[single pt active]
CCC(C)Cn1c(C)nc2ccccc21 (centres undefined)	-1.1%
Nc1c(N2CCOCC2)cc(Cl)c2nonc12	-10.3%
COc1cccc(Cn2c(=O)c(-c3cccc(F)c3)nc3cncnc32)c1	15.3%
CN1CCN(c2ccnc(-c3ccoc3)n2)CC1	36.0%
CCOC(=O)N1CCC(NC(=O)CS(=O)(=O)Cc2nc(-c3ccccc3C)oc2C)CC1	119.7%
Cc1cc(C)cc(NC(=O)C2CCCN(S(=O)(=O)c3cnc[nH]3)C2)c1 (centres undefined)	-9.2%
Cc1nc2ccccc2c(=O)n1CCCO	-6.3%
COc1cc(-c2nnc(COc3ccc4ccccc4c3)o2)cc(OC)c1OC	94.9%
O=C(c1ccc2c(c1)N(Cc1ccc(F)cc1)C(=O)CS2)N1CCOCC1	45.3%

# Carrying on.
Compound	AmpC inh no det
c1ccc(-c2noc(CN3CCN(C(c4ccccc4)c4ccccc4)CC3)n2)cc1	42.2%
Cc1ccc(NC(=O)CC2Oc3ccc(C)cc3NC2=O)cc1 (centres undefined)	-15.1%
CCOC(=O)c1oc2ccccc2c1NC(=O)Cc1cccs1	1.7%
CCOC(=O)NCCc1ccc(OC)cc1	7.6%
CC[N+](CC)(CCCNC1=CC(=O)C(NCCC[N+](CC)(CC)Cc2ccccc2)=CC1=O)Cc1ccccc1	13.7%
Cc1noc(/C=C/N(C)C)c1S(=O)(=O)N1CCCC(C(=O)NC2CCCCC2)C1 (centres undefined)	87.5%
CCOP(=O)(c1c(F)c(F)c(F)c(F)c1F)C1(O)CCCCC1 (centres undefined)	0.1%
COc1ccc(N=Cc2c(O)[nH]c3ccccc23)cc1OC	59.3%
Cc1cc(S(=O)(=O)N(Cc2ccccc2)Cc2ccc(N(C)C)cc2)ccc1-n1cnnn1	20.1%
COc1ccc(N(CC(=O)NC(C)(C)C)C(=O)c2ccco2)cc1	30.0%
O=c1c(-c2cc(F)cc(F)c2)nc2cnc(N3CCNCC3)nc2n1Cc1cccs1	-3.2%
COc1ccc(-n2c3c(cc(C(=O)N4CCCCC4)c2=O)C(=O)CC(C)(C)C3)cc1	28.6%
CCOC(=O)Nc1ccccc1C(=O)N1CCOCC1	2.6%
Cc1cc(C)cc(N(CC(=O)N2CCC(C)CC2)S(C)(=O)=O)c1	40.1%
Cc1cccc(N2C(=O)N(c3ccccc3C)C3CS(=O)(=O)CC32)c1 (centres undefined)	-8.2%
CC1(C)CC2(CCCN3C(=O)CSC32)CCS1 (centres undefined)	6.0%
CC(=O)c1c(C)nc(-c2ccc(Cl)cc2)nc1N=CN(C)C	73.0%
Cc1cc(C)n(-c2cccc3cccnc23)n1	-1.3%
O=C(c1ccc(COc2ccc(Cl)cc2)o1)N1CCN(Cc2ccc3c(c2)OCO3)CC1	91.4%
C=CCn1c(NC(=O)c2ccccc2)c(C#N)c2nc3ccccc3nc21	6.0%
OCc1nnn(-c2cccc(C(F)(F)F)c2)c1CO	-4.7%
COC(=O)c1ccccc1NC(=O)C1CCN(S(=O)(=O)c2cc(OC)ccc2OC)CC1	79.1%
Cn1c(=O)[nH]c(=O)c2c1nc(CN1CCOCC1)n2CCc1ccccc1	7.0%
c1coc(-c2nnc(-c3ccc4c(c3)OCO4)o2)c1	-2.2%
